# High-throughput results from PubChem.
# Rango-impB inh = qHTS Assay for Inhibitors of Rango (Ran-regulated importin-beta cargo) - Importin beta complex formation | Importin subunit beta-1 (Homo sapiens), Q14974 | Rango CFP/YFP FRET sensor + importin beta, 45 min | Potency, µM (titrated, usually from 92.2 µM), inactives show top-dose inhibition of complex formation | actives 0.031% (n = 340,000) | AID 540263, 2011; active = rising FRET ratio curve, often small or poorly fitted; inconclusive = mostly compound fluorescence or quenching in the first reads; inactive = flat curves in all reads;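 note: potency is the fitted concentration of half-maximal effect; 0% = DMSO wells and 100% = buffer wells lacking importin beta; nearly all actives have a fitted effect of over 15% in size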
# Target sequence (Q14974 whole entry, looked up): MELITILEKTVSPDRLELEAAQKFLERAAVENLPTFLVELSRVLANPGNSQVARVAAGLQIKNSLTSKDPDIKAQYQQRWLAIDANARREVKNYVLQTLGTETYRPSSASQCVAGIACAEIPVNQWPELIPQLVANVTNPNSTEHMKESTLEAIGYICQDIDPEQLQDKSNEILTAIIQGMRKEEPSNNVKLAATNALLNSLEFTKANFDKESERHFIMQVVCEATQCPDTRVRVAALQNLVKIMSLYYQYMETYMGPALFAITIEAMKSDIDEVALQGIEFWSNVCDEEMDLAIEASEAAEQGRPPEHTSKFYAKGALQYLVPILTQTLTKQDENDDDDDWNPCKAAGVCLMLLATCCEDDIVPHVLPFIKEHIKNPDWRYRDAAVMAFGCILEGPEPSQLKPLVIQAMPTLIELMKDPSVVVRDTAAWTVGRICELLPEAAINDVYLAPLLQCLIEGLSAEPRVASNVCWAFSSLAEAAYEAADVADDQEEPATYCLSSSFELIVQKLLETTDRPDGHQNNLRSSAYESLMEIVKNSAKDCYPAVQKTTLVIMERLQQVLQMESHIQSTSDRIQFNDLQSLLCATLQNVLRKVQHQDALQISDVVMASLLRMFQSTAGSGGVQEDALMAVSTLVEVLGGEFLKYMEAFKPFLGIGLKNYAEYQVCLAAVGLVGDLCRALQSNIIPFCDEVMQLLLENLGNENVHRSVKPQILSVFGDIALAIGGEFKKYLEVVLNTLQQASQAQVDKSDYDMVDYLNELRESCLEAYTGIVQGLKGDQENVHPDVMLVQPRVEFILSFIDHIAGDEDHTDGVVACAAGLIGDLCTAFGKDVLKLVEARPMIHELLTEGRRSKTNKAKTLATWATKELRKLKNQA
#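 FRET biosensor Rango (snurportin 1 IBB between N-terminal EYFP and C-terminal Cerulean), 50 nM in PBS/1 mM DTT/0.02% Tween-20/0.1% BSA, preincubated 5 min RT with compound; 0.125 microM importin beta added, 45 min RT, CFP/YFP FRET ratio read.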
# Rango dissoc inh = qHTS Assay for Inhibitors of RanGTP induced Rango (Ran-regulated importin-beta cargo) - Importin beta complex dissociation | actives 0.071% (n = 340,000) | AID 540253, 2011 | Biochemical FRET Rango-importin beta, RanGTP-induced dissociation | Potency, µM (doses to about 46.1 µM), inactives show top-dose activity change, negative = inhibition | Snurportin-1 (Homo sapiens) + GTP-binding nuclear protein Ran (Homo sapiens) + Importin …; active means falling FRET ratio curve, often poorly fitted, with flat reads before Ran was added; inconclusive means other falling curves, or compound fluorescence or quenching; inactive means flat or rising ratio curve;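 note: potency is the fitted concentration of half-maximal effect; % of control where 0% means no effect; nearly all actives have a fitted effect of over 45% in size; -100% = wells without RanGTP and RCC1; the record marks most hits as doubtful in a second field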
#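 Rango (0.1 uM)–importin beta (0.25 uM) complex; RanGTP-RCC1 trigger; 45 min RT; CFP/YFP FRET read.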
# GLA inh pH 4.5 = qHTS Assay for Inhibitors of Human alpha-Galactosidase at pH 4.5; purified enzyme, 4-MU-alpha-Gal fluorescence, pH 4.5; activity change, negative = inhibition, % at 105 µM; 230,000 tested, under 10 active; inconclusive = small, poorly fitted or top-dose-only inhibition, or a rising curve; inactive = flat fitted curve, though single readings scatter; no compound was filed as active;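 note: 0% = full activity with enzyme and -100% = basal without enzyme; dose as in the result columns while the protocol names 77 µM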
# miR-21 FLuc = qHTS Assay for Modulators of miRNAs and/orActivators of miR-21; AID 2288, 2010; Potency, µM (top dose mostly 38.3 µM), inactives show at the highest dose reporter change, positive = more light; 340,000 tested, under 10 active; HeLa miR-21 FLuc reporter, luciferase, 48 h; active = well fitted rising curve with a large enough effect; inconclusive = small, poorly fitted or top-dose-only effect; inactive = no such curve, though single readings can be large or run the other way;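 note: % of control where 0% means no effect; miR-21 action dims this reporter so a rising signal means less miR-21 action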
#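 HeLa miR-21-FLuc reporter line, endogenous miR-21; 2000 cells/well in DMEM/10% FBS; compound titration up to ~40uM final, 48 h, 37 degree Celsius; luciferase detection reagent, 15 min lysis, CCD luminescence.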
# Starred values were filed as active, the others as inactive; u = inconclusive; x = no result given; & = joins results of further samples. A portion of the library; the hit share may differ from the screen's.
SMILES,Rango-impB inh,Rango dissoc inh,GLA inh pH 4.5,miR-21 FLuc
C[C@H]1CN([C@@H](C)CO)C(=O)c2cccc(NC(=O)Nc3ccc(C(F)(F)F)cc3)c2O[C@H]1CN(C)C,0.9%,12%,x,x
Cc1nnc(SCC(=O)Nc2nccs2)n1C(C)C,0.4%,-3%,x,2%
O=C(CNC(=O)c1ccc(Br)o1)NCC(=O)OCc1ccccc1,1.6%,-6%,x,x
Cc1cc(SCC#N)n2nc(C)c(-c3ccccc3)c2n1,0.1%,1%,-7,-20%
CC(C)Cn1cnc2c(Sc3c([N+](=O)[O-])ncn3C)nc(N)nc21,0.0%,11%,x,x
CCSc1nnc(SCC(=O)Nc2cc(C)on2)s1,3.1%,0%,x,x
O=c1ccc(S(=O)(=O)N2CCCC2)cn1Cc1ccc(Cl)cc1Cl,-2.4%,-5%,x,x
COc1ccc(S(=O)(=O)N2CCN(CC(=O)N3CCOCC3)CC2)cc1OC,-5.6%,-1%,x,x
COc1ccc(CC(=O)N2CCNC2=O)cc1,-0.4%,-5%,1,-2%
Cc1cccc(NC(=O)Cn2nnc3ccccc32)c1,0.9%,1%,6,-45%
Cc1cccc(-n2ccc(=O)c(C(=O)Nc3ccc(S(=O)(=O)Nc4nccc(C)n4)cc3)n2)c1,-0.4%,10%,x,-10%
O=C(O)c1cc2c(cn1)[nH]c1ccccc12,-4.1%,-8%,x,0%
O=C(COc1ccc2c(c1)OCO2)Nc1ccc(Cl)cn1,-1.0%,-21%,x,-61%
CC1(C)Cc2c(sc3nc(-c4ccccc4Cl)n(N)c(=O)c23)CO1,-0.2%,-12%,-1,5%
Cc1ccc(-c2cc(C(=O)OCC(=O)NC3CC3)c3ccccc3n2)cc1,0.7%,-1%,x,x
Cc1nn(C)c(C)c1S(=O)(=O)N1CCCC(C(=O)NC2CCCCC2)C1 (stereo not given),u,7%,3,0%
CC(=O)c1ccc(N2CCN(C(=O)c3noc4c3CSc3ccccc3-4)CC2)cc1,3.4%,-12%,x,-8%
CC[C@H]1OC(=O)[C@H](C)[C@@H](O[C@H]2C[C@@](C)(OC)[C@@H](O)[C@H](C)O2)[C@H](C)[C@@H](O[C@@H]2O[C@H](C)C[C@H](N(C)C)[C@H]2O)[C@](C)(O)C[C@@H](C)CN(C)[C@H](C)[C@@H](O)[C@]1(C)O,-2.8%,10%,x,x
CCN(CC(=O)Nc1ccccc1C(F)(F)F)C(=O)CSCC(=O)Nc1cc(C)on1,0.0%,14%,x,x
COc1ccc(C2=CC(=O)CC(C)(C)C2)cc1OC,-1.2%,-1%,x,x
O=C(Nc1ccc2nc3n(c(=O)c2c1)CCCCC3)C(=O)N1CCN(c2ccc(F)cc2)CC1,-2.2%,-10%,x,0%
O=C(OCc1nc2ccsc2c(=O)[nH]1)c1ccc(Cl)nc1,4.5%,7%,x,x
C[C@H](NC(=O)N1CCn2c1nc1ccccc12)C(=O)NCCc1ccccc1,-0.6%,-3%,x,4%
O=c1cc(CSc2ccc(Cl)cc2)[nH]c2[nH]n(-c3ccccc3)c(=O)c12,-0.3%,7%,-8,0%
CCCCCCCCCc1nc(N)n[nH]1,2.4%,18%,-10,-17%
O=C(c1ccc(F)cc1)N1CCCCC(Sc2nnc3ccccn23)C1=O (stereo not given),3.0%,0%,-7,-8%
CCn1c(SCc2nc3ccccc3c(=O)[nH]2)nc2ccccc2c1=O,-0.8%,-18%,-7,-11%
CCN(CC)C(=O)CC(c1ccc(F)cc1)c1ccco1 (stereo not given),-2.8%,-6%,-5,-3%
O=C(O)c1cccc(Cn2c(Cl)c(/C=N/NC(=O)c3ccccc3Cl)sc2=O)c1,5.4%,0%,-2,-3%
C=CCN(CC=C)C(=O)c1cc2ccccc2c(=O)o1,1.6%,-21%,4,-5%
COc1ccc(N2CCN(CCNC(=O)c3ccc(NC(=O)C4CCCO4)cc3)CC2)cc1 (stereo not given),1.5%,3%,-1,-3%
C#CCSc1nnc(CNS(=O)(=O)c2ccc(Br)cc2)n1C,0.6%,-13%,x,3%
NC(=O)NC(=O)CSc1nc2sc(-c3ccccc3)cc2c(=O)n1-c1ccccc1,2.9%,23%,-5,-27%
COc1ccc2nc(SCC(=O)NCc3ccc(F)cc3)[nH]c2c1,1.5%,-12%,x,2%
COc1ccc(OCC(=O)Nc2nonc2NC(=O)COc2ccc(OC)cc2)cc1,3.2%,50%,8,0%
CCN(CC)CCNC(=O)C1(O)c2cc(Br)ccc2NC(=O)N1c1c(F)cccc1F (stereo not given),-0.8%,13%,x,-3%
Cc1ccc(C(=O)NCc2ccc(F)cc2)cc1NC1=NC2CS(=O)(=O)CC2S1 (stereo not given),-0.4%,-9%,x,-1%
COc1cccc(C(=O)NCCC2=CCCCC2)c1,1.6%,10%,-11,-25%
COc1cc(/C=C2/C(=O)ON=C2C)ccc1OCc1cccc(F)c1,0.2%,12%,3,-60%
Cc1cccc(Cn2cnc3c(sc4nc(C)cc(C)c43)c2=O)c1,-4.3%,-3%,x,7%

# Quoted from the listing:
# `COc1ccc2nc(SCC(=O)NCc3ccc(F)cc3)[nH]c2c1` – Rango dissoc inh: -12%
# `C#CCSc1nnc(CNS(=O)(=O)c2ccc(Br)cc2)n1C` – miR-21 FLuc: 3%

# Back to the main list, starting 4 compounds before the break.
SMILES,Rango-impB inh,Rango dissoc inh,GLA inh pH 4.5,miR-21 FLuc
Cc1ccc(C(=O)NCc2ccc(F)cc2)cc1NC1=NC2CS(=O)(=O)CC2S1 (stereo not given),-0.4%,-9%,x,-1%
COc1cccc(C(=O)NCCC2=CCCCC2)c1,1.6%,10%,-11,-25%
COc1cc(/C=C2/C(=O)ON=C2C)ccc1OCc1cccc(F)c1,0.2%,12%,3,-60%
Cc1cccc(Cn2cnc3c(sc4nc(C)cc(C)c43)c2=O)c1,-4.3%,-3%,x,7%
CC(=O)Oc1ccc(N2C(=O)C3C4C=CC(CC4)C3C2=O)cc1[N+](=O)[O-] (stereo not given),-1.6%,6%,-2,-12%
CCc1c(C(=O)NCc2ccc3c(c2)OCO3)[nH]c(C)c1C(C)=O,0.0%,-1%,8,-15%
COc1ccc(Cc2noc(CN3CCC(c4ccncc4)CC3)n2)cc1OC,-0.6%,14%,8,13%
O=C(Nc1ccc(O)cc1C(=O)O)c1cccs1,u,9%,-1,-2%
COc1ccc(C2CC(c3c(-c4ccccc4)c4cc(Cl)ccc4[nH]c3=O)=NN2C(=O)CCC(=O)O)cc1 (stereo not given),2.4%,28%,2,10%
Cc1cc(C(N)=O)nn1-c1c(Cl)cc(Cl)cc1Cl,4.3%,-3%,-12,-26%
Cc1ccc(N2CCN(C(=O)c3ccccc3F)CC2)c(C)c1,-2.1%,0%,-4,9%
CCOC(=O)Cc1csc(NC(=O)CC)n1,-0.2%,-10%,-4,-9%
O=C(CCN1CCN(S(=O)(=O)c2ccc(Cl)cc2)CC1)Nc1ccccc1F,0.0%,-11%,-9,-3%
COC(=O)c1ccc(C2C(C(C)=O)=C(O)C(=O)N2CCO)cc1 (stereo not given),-1.0%,2%,-2,-2%
COc1cc(C(c2sc3nc(C)nn3c2O)N2CCC3(CC2)OCCO3)cc(OC)c1OC (stereo not given),3.0%,-13%,9,-5%
CC(C)CNC(=O)/C=C/C(=O)O,-0.3%,-9%,-2&3,-5%&2%
COC(=O)C(=N/Nc1ccccc1C(=O)OC)/C(C)=N/O,1.7%,4%,11,0%
O=Cc1c(NCc2ccco2)nc2ccccn2c1=O,u,1%,-9,-25%
Cc1ccc(-c2noc(CN3CCCCC3)n2)cc1,-8.8%,22%,11,-43%
Cc1cccc(C)c1NC(=O)C(=O)NCCOc1ccc(Cl)cc1,-1.9%,-3%,-1,-4%
COc1cc(C(=O)OCC(=O)N(C)C)cc(NC(=O)c2ccco2)c1OC,-1.7%,-3%,2,0%
CCOC(=O)c1[nH]c(C)c(C(=O)Nc2ccccc2C)c1C,0.2%,-11%,-5,2%
CN(C)CCCOC(=O)C1c2ccccc2Oc2ccccc21,0.7%,0%,2,0%
CSc1ncc(Cl)c(C(=O)Nc2ccc(NC(C)=O)cc2)n1,5.4%,71%,-4,-1%&-11%

# Retrieved by compound from the entries so far:
SMILES,Rango-impB inh,Rango dissoc inh,GLA inh pH 4.5,miR-21 FLuc
COc1cc(C(c2sc3nc(C)nn3c2O)N2CCC3(CC2)OCCO3)cc(OC)c1OC (stereo not given),3.0%,-13%,9,-5%
Cc1ccc(-c2noc(CN3CCCCC3)n2)cc1,-8.8%,22%,11,-43%
COc1ccc2nc(SCC(=O)NCc3ccc(F)cc3)[nH]c2c1,1.5%,-12%,x,2%
CCSc1nnc(SCC(=O)Nc2cc(C)on2)s1,3.1%,0%,x,x
Cc1cc(SCC#N)n2nc(C)c(-c3ccccc3)c2n1,0.1%,1%,-7,-20%
CCn1c(SCc2nc3ccccc3c(=O)[nH]2)nc2ccccc2c1=O,-0.8%,-18%,-7,-11%

# (cont.)
SMILES,Rango-impB inh,Rango dissoc inh,GLA inh pH 4.5,miR-21 FLuc
CCc1cccc(CC)c1NC(=O)CO/N=C(\N)CC(=O)NC1CCCCC1,-0.1%,-3%,4,2%
O=C(Nc1ccnn1C1CCN(Cc2ccccc2OC(F)F)CC1)c1cccnc1,4.8%,2%,x,-4%
O=C(Nc1ccncc1)C1CC1c1ccccc1 (stereo not given),-4.4%,-12%,8,14%
COc1ccc(C2=Nc3nc(-c4ccccc4)cn3C(c3ccc(OC)cc3)C2)cc1 (stereo not given),u,u,-4,-19%
O=C(O)c1cccc(NC(=O)c2cccc(S(=O)(=O)Nc3cccc([N+](=O)[O-])c3)c2)c1,0.4%,-7%,x,2%
Cc1cccc(NC(=O)NCc2cccnc2)c1C,1.4%,4%,x,-2%
COc1ccc(S(=O)(=O)N2CCN(C(=O)NCc3ccc(C)cc3)CC2)cc1,-1.9%,-5%,x,2%
CCCc1nnc(NC(=O)CCC(=O)N2CCN(CCn3c(C)ccc3C)CC2)s1,u,5%,5,-3%
CC(O)c1nc2ccccc2n1Cc1ccccc1 (stereo not given),-1.2%,-1%,x,-3%
Cc1ccc([N+](=O)[O-])cc1N=C1C(=O)Nc2ccccc21,0.2%,-1%,x,-4%
COc1ccc2nc(SCC(=O)Nc3ccccc3OC)[nH]c2c1,-0.1%,-4%,-4,-8%
CC(C)(C)S(=O)N1Cc2cc(CO)cc(-c3ccccc3)c2[C@@H]1CCO (stereo not given in full),-4.6%,1%,x,x
O=S1(=O)CCC(=Nc2ccc(Cl)cc2)c2ccsc21,1.7%,1%,-18,-1%
